Assay outcomes: PubChem, National Center for Advancing Translational Sciences (NCATS)
Vaccinia mCherry: inhibitors of vaccinia virus infection (mCherry reporter signal); Vaccinia virus mCherry reporter infection, fluorescence; about a quarter of the inactives have no number; Potency, µM (series often up to 36.5 µM), for inactives: at the highest dose activity change, negative = inhibition, most hits filed as inhibitors; hit rate 0.63% among 310,000; AID 720579; active = well fitted inhibition curve with a large enough effect; inconclusive = small, poorly fitted or top-dose-only effect; inactive = no such curve, though single readings can be large or run the other way; tested in A549 cells; note: nearly all actives have a fitted effect of over 35% in size; inactives centre near -10
VACV Venus inh: vaccinia inhibition (Venus reporter); Vaccinia virus Venus reporter expression, fluorescence; Potency, µM (doses to about 36.5 µM), for inactives: at the top dose activity change, negative = inhibition, most hits filed as inhibitors; hit rate 0.46% among 330,000; AID 720580; active means well fitted inhibition curve with a large enough effect; inconclusive means small, poorly fitted or top-dose-only effect; inactive means no such curve, though single readings can be large or run the other way; tested in A549 cells; note: nearly all actives have a fitted effect of over 30% in size; inactives centre near -10
Starred values were filed as active, the others as inactive; i = inactive; ? = inconclusive; nt = no result given; & = joins results of further samples; [ ] = dose if it differs, or a comment. % is set by controls: 0 for no effect and ±100 for the full control effect; potency is the fitted concentration of half-maximal effect. Rows are unselected; overall some 0.87% were active at least once.

Start of the listing, in advance, 5 compounds:
SMILES | Vaccinia mCherry | VACV Venus inh
CCOc1ccc(CC(=O)NC2CC(=O)N(c3ccc(C)c(C)c3)C2)cc1 (configuration not stated) | -10%[7.34 µM] | -12%[7.34 µM]
O=C(CCCN1C(=O)/C(=C/c2cccs2)SC1=S)NNC(=O)c1ccccc1O | i | -13%
CNc1cncc(-c2ccc(S(C)(=O)=O)cc2)n1 | ? | -18%
CCOC(=O)N1CCN(C(=O)COC(=O)c2ccc(Cl)nc2)CC1 | i | -1%
CCOC(=O)C1=C(C)N(C)C(C)=C(C(=O)OCC)C1c1ccc(Cl)cc1 | ? | -30%

Results, previewed entries included:
SMILES | Vaccinia mCherry | VACV Venus inh
CCOc1ccc(CC(=O)NC2CC(=O)N(c3ccc(C)c(C)c3)C2)cc1 (configuration not stated) | -10%[7.34 µM] | -12%[7.34 µM]
O=C(CCCN1C(=O)/C(=C/c2cccs2)SC1=S)NNC(=O)c1ccccc1O | i | -13%
CNc1cncc(-c2ccc(S(C)(=O)=O)cc2)n1 | ? | -18%
CCOC(=O)N1CCN(C(=O)COC(=O)c2ccc(Cl)nc2)CC1 | i | -1%
CCOC(=O)C1=C(C)N(C)C(C)=C(C(=O)OCC)C1c1ccc(Cl)cc1 | ? | -30%
CC1=C(C(=O)OCc2ccccc2)C(c2ccc(Br)cc2)NC(=O)N1CCCC(=O)O (configuration not stated) | i | -4%
CCn1ncc(Br)c1C(=O)Nc1ccn(C23CC4CC(CC(C4)C2)C3)n1 | -21% | -9%
CCC(C)c1ccccc1OCCCN(C)Cc1ccccc1 (configuration not stated) | i | -13%
COc1ccc(NC(=O)C(c2cc3c(cc2[N+](=O)[O-])OCO3)N(C)Cc2ccccc2)cc1 (configuration not stated) | -7% | -10%
CSc1ccc(/C=C/c2ccc3cccc(O)c3n2)cc1 | -23% | 5%
CN(c1ccccc1)S(=O)(=O)c1nnc(NC(=O)c2ccco2)s1 | -3% | 13%
COc1cccc(CN2CCNC(=O)C2CC(=O)NCc2cc(C(C)C)no2)c1 (configuration not stated) | ? | -24%
COCCNC(=S)NNC(=O)c1cc(-c2cccnc2)nc2ccccc12 | -1% | -5%
Cc1ccccc1C(=O)Nc1ccc(C(=O)OCc2cc(=O)n3nc(C(C)C)sc3n2)cc1 | -20% | -21%
Cc1cc(-n2nc(C)cc2C)n2nc(C)c(-c3ccccc3)c2n1 | -3% | -16%
COc1ccccc1CCC(=O)NNC(=O)Cn1nc(C)cc1C | i | -16%
Oc1ccc(/C=N/Nc2ccc(C(F)(F)F)cn2)cc1 | -26% | 0%
O=C1C(Cc2ccccc2)Nc2ncnc(N3CCc4ccccc4C3)c2N1Cc1ccccc1 (configuration not stated) | -8% | -15%
CN1CCN(c2nc(N3CCN(CCO)CC3)nc3ccccc23)CC1 | -14% | -12%
CCCc1noc2c1/C(=N\O)CCC2 | -16% | -6%
Cc1ccc(S(=O)(=O)N2CCC(C(=O)NNC(=O)C3CC3)CC2)cc1Cl | i | -4%
CC1CCN(c2c([N+](=O)[O-])c(=O)n(-c3ccccc3)c3ccccc23)CC1 | 2% | -3%
Nc1n[nH]c2c1C1(CCCC1)Cc1ccccc1-2 | nt | ?
Cc1cccc(C)c1-n1nnnc1C1(C)CCC(=O)N1CCc1ccc(O)cc1 (configuration not stated) | -10% | -8%
COc1cccc(NC(=O)Nc2ccc(C(C)(C)C)cc2)c1 | -18% | -23%
Cc1ccc(-c2nnc(C)c(N3CC(C)OC(C)C3)n2)cc1 (configuration not stated) | nt | ?
CS(=O)CC(O)(c1ccc(F)cc1)C1CC1 (configuration not stated) | i | -4%
CN(C)c1ccc(C(C(=O)NC2CCCC2)N(Cc2cccnc2)C(=O)c2snc(C(N)=O)c2N)cc1 (configuration not stated) | -12% | -3%
Cc1cccc(-n2cc(C(=O)O)c(=O)cc2C)c1 | -5% | -14%
O=C(CCC(=O)OCC(=O)c1ccc([N+](=O)[O-])cc1)NC1CCCCC1 | i | -1%
Cn1c(CCC(=O)OCC(=O)NCC(F)(F)F)nc(=O)c2ccccc21 | -8% | -16%
CC(NS(=O)(=O)c1ccc(OCC(=O)NCc2ccccn2)cc1)c1ccccc1 (configuration not stated) | -2% | 9%
O=C(NCC1COCCO1)c1ccc2nc(Cc3cccc(Cl)c3)oc2c1 (configuration not stated) | -19% | -9%
COC(=O)c1sccc1S(=O)(=O)Nc1ccc(N2CCCCC2)cc1 | -10%[7.34 µM] | -2%[7.34 µM]
Clc1ccc(-c2csc(N3CCN(c4ccccc4)CC3)n2)cc1 | nt | -8%
CC1CC(C)(C)NC(=S)N1CCCC(=O)Nc1ccc(Cl)cc1 (configuration not stated) | -3% | -12%
COc1ccc(-n2ncc(C(C)NS(=O)(=O)c3ccc(C)s3)c2C)cc1 (configuration not stated) | -5% | -24%
CCC(C)n1c(SCC(=O)Nc2cc(C)on2)nc2ccccc2c1=O (configuration not stated) | i | ?
COc1ccc(-c2nc3c(C)cc(Br)cn3c2Cc2ccccc2)cc1OC | 27% | 8%
CC(=O)c1ccc(OCC(O)COc2ccc(C(C)=O)cc2)cc1 | -17% | 6%
CCOC(=O)N1CCC(NC(=O)C2=CCN(S(=O)(=O)c3ccccc3)CC2)CC1 | -13% | -6%
COC[C@H]1CCCN1c1ccc2c(c1)O[C@@H](COCc1ccccc1)CN([C@H](C)c1ccccc1)S2(=O)=O | -8% | -15%
COc1ccc(NC(=O)c2cc(-c3cccc(OC)c3)on2)cc1 | 0% | -13%
COc1cc(C2CC(=O)c3cnc(N4CCN(Cc5ccccc5)CC4)nc3C2)cc(OC)c1OC (configuration not stated) | ? | -14%
CC(CCc1ccccc1)NC(=O)C(C)OC(=O)c1ccco1 (configuration not stated) | -9% | 4%
COc1ccc(C=C2C=C(C(C)(C)C)C(=O)C(C(C)(C)C)=C2)cc1OC | -14% | -23%
CN(CC(=O)NNC(=O)CNC(=O)c1cccs1)S(=O)(=O)c1ccc(Cl)cc1 | -15% | -14%
COc1ccc(-c2cn3c(C)c(C(=O)Nc4ccncc4)sc3n2)cc1 | -15% | 2%
CCOc1ccc2c(ccc(/C=C/c3cc(C)c4cccnc4c3O)[n+]2C)c1 | ? | ?
CN(C)c1ccc(/C=C/c2ccnc3c(Cl)ccc(Cl)c23)cc1 | ? | 31%[activator]
Cn1nccc1C(=O)Oc1cccc(/C=N/NC(=O)c2ccccc2O)c1 | -11% | -18%
O=S(=O)(NCCOc1cccc2cccnc12)c1ccc(F)cc1 | 9% | 17%
COC(=O)c1ccc(N=c2sc(C(=O)OC)cc(=O)n2C)cc1 | i | -8%
COc1cccc(N(C(=O)CCl)C(C(=O)NCCc2ccccc2)c2cccs2)c1 (configuration not stated) | ? | ?
C=CCc1cccc(/C=N/NC(=O)C(=O)Nc2ccc(C)cc2)c1O | -2% | -17%
O=C(NCCN1C(=O)S/C(=C\c2ccccc2)C1=O)C1CCN(S(=O)(=O)c2cccs2)CC1 | 0% | -16%
CCn1c(=O)c(C(=O)Nn2c(C)nc3ccccc3c2=O)c(O)c2ccccc21 | i | -3%
CN1CCN(CC#Cc2ccccc2)CC1CCO (configuration not stated) | -13% | -7%
Cc1ccc(NC(=O)CCn2cnc3ccccc3c2=O)cc1 | -9% | 0%
COc1ccc(NC(=O)CN(C)S(=O)(=O)c2ccc3c(c2)CC(C)N3C(C)=O)c(OC)c1 (configuration not stated) | -22% | -1%

Remaining list, next part
SMILES | Vaccinia mCherry | VACV Venus inh
CCOC(=O)c1[nH]c2ccc(OC)cc2c1NC(=O)CCN1CCSCC1 | i | -14%
CC(C)(C)n1nnnc1C(c1cccnc1)N(Cc1ccccc1)Cc1ccco1 (configuration not stated) | i | -10%
O=C(/C=C/c1ccc(Cl)cc1)NCc1ccncc1 | i | -8%
Cc1cccc(C)c1OCC(=O)Nc1ccccc1C(F)(F)F | -6% | -2%
Cc1ccc(S(=O)(=O)N2CCC(C(=O)NCc3cccnc3)CC2)cc1 | -18% | -11%
CCC(C)NC(=O)C1CCN(C(=O)c2ccccc2)CC1 (configuration not stated) | i | -10%
CC(C)NC(=O)NC(=O)COC(=O)c1ccc(NC(=O)CC#N)cc1 | -9% | 2%
COc1ccccc1C1=NCc2nnc(CSC)n2-c2ccc(Cl)cc21 | i | -10%
O=C(O)CCC(=O)Nc1cccc2cccnc12 | -13% | -11%
CCOC(=O)c1cc(C)nc(Sc2ccc(C)cc2)c1C#N | -4%[7.34 µM] | -10%[7.34 µM]
Cc1cc(SCC(=O)N2CCCC2=O)nc2c(C)cccc12 | -1% | -7%
O=C(CCSCc1ccccc1F)N1CCN(c2ccccn2)CC1 | -13% | 5%

Compound profiles (already shown). Order of values: Vaccinia mCherry, VACV Venus inh
CCOC(=O)c1cc(C)nc(Sc2ccc(C)cc2)c1C#N reads -4%[7.34 µM], -10%[7.34 µM]
Cc1cccc(C)c1OCC(=O)Nc1ccccc1C(F)(F)F reads -6%, -2%

Other entries.
SMILES | Vaccinia mCherry | VACV Venus inh
Cc1cc(C)cc(NC(=O)CCS(=O)(=O)c2ccc3c(c2)oc(=O)n3C)c1 | 0% | 9%
CCCCn1c(N)c(N(CCOC)C(=O)C2CCN(C(=O)c3ccc(Cl)cc3)CC2)c(=O)[nH]c1=O | -11% | -5%
COc1ccccc1CNC(=O)Nc1nc(C(N)CCc2ccccc2)cs1 (configuration not stated) | -30% | -26%
C[C@H]1COC(=O)[C@H](CC(=O)OC(C)(C)C)C/C=C\C[C@@H](CC(=O)N[C@@H](CO)Cc2ccccc2)C(=O)N1 | i | -7%
O=C1NC[C@@H](CCCCN2C[C@H](Cc3ccc(O)cc3)N(CCc3ccccc3)C(=O)C2=O)N(CCc2ccccc2)C1=O | -9% | 5%
Cc1ccc(NC(=O)CSCC(=O)Nc2ccccc2C(=O)N2CCCCC2)cc1 | -13% | 0%
CCc1noc(C)c1C(=O)NC1CCCc2c1cnn2-c1ccc(C(C)(C)C)cc1 (configuration not stated) | -19% | -13%
C[C@H](CO)N1C[C@H](C)[C@@H](CN(C)C(=O)Nc2ccc(C(F)(F)F)cc2)Oc2c(NS(=O)(=O)c3ccccc3)cccc2C1=O | i | -19%
COc1ccc(CC(=O)Nc2c3c(nn2C(C)(C)C)CS(=O)C3)cc1 (configuration not stated) | i | -3%
COc1ccc(C)cc1S(=O)(=O)N1CCc2ccccc2C1 | i | -10%
CNS(=O)(=O)c1ccc2c3c(cccc13)C(=O)N2 | -6% | -15%
Cc1ccc(-c2nc(NCCN(C)C)c3ccccc3n2)cc1 | ? | ?
CN1C(=O)N(C)C(c2ccccc2Cl)C2=C1CC(C)(C)CC2=O (configuration not stated) | i | -6%
COC(=O)c1ccccc1N/C=C/C(=O)c1ccc(Br)cc1 | -11% | -7%
COc1ccc(C)cc1S(=O)(=O)Nc1cccc(-c2ccc(N3CCCC3)nn2)c1 | -15% | -12%
CCOC(=O)C[C@H]1c2cc(F)ccc2S(=O)(=O)N1c1cccc(OC)c1 | ? | -17%&-6%
CSc1ccc(/C=N/NC(=O)c2cccs2)cc1 | i | ?
Cc1cccc2cc(CN(CC3CCCO3)C(=O)C3CC3)c(N(C)C)nc12 (configuration not stated) | -11% | 2%
O=C(/C=C/c1ccc(OCc2c(F)cccc2Cl)cc1)N1CCOCC1 | -23% | 15%
COc1ncnc(OC)c1NC(=O)c1ccc(F)cc1 | 6% | 13%
Cc1nc2cc(-c3cccc(F)c3)nn2c(C)c1CCC(=O)NC1CCCCC1 | -2% | -1%
Cn1c(=O)c2cc(S(=O)(=O)N3CCN(c4cccc(C(F)(F)F)c4)CC3)ccc2n(C)c1=O | -7% | -5%
O=C(CSc1nnc(COc2ccc(Br)cc2)o1)N1CCOCC1 | -1% | 6%
COc1ccc(NC(=S)N(CCN(C)C)C(C)c2ccncc2)cc1Cl (configuration not stated) | -3% | -10%

A draw from above in order of number of heavy atoms, high to low:
SMILES | Vaccinia mCherry | VACV Venus inh
Cn1c(=O)c2cc(S(=O)(=O)N3CCN(c4cccc(C(F)(F)F)c4)CC3)ccc2n(C)c1=O | -7% | -5%
Cc1nc2cc(-c3cccc(F)c3)nn2c(C)c1CCC(=O)NC1CCCCC1 | -2% | -1%
CCOC(=O)C[C@H]1c2cc(F)ccc2S(=O)(=O)N1c1cccc(OC)c1 | ? | -17%&-6%
COc1ncnc(OC)c1NC(=O)c1ccc(F)cc1 | 6% | 13%

Going on with the list.
SMILES | Vaccinia mCherry | VACV Venus inh
CCOC(=O)c1ccccc1NC(=O)c1ccccc1SC | -16% | -14%
CN(CC(=O)Nc1ccc(Cl)c(C(F)(F)F)c1)C(=O)Cc1n[nH]c(=O)c2ccccc12 | -26% | ?
Cc1cc(C)c(C)c(S(=O)(=O)Nc2ccccc2C(=O)O)c1C | i | -5%
COc1ccc(NC(=O)N(C)C[C@H]2Oc3c(NC(=O)Nc4ccc5c(c4)OCO5)cccc3C(=O)N([C@H](C)CO)C[C@@H]2C)cc1 | 14% | -11%
C=CCN1C(=O)C(Cc2ccc(OCC)cc2)S/C1=N\N=C\c1cccs1 (configuration not stated) | nt | 1%
CC1Nc2ncnc(N3CCOCC3)c2N(Cc2ccccc2)C1=O (configuration not stated) | -15% | -1%
CC1CCCN(C(=O)COC(=O)c2n[nH]c3ccccc23)C1 (configuration not stated) | -17% | -8%
O=C(c1ccoc1)N1CCC2(CC1)Oc1ccc(Cl)cc1C(=O)C21CC(c2ccc(Cl)cc2)=NO1 (configuration not stated) | -14% | -15%
COc1ccccc1N1CCN(c2ccnc3cc(Cl)ccc23)CC1 | 11µM* | -28%
